Source: PubChem BioAssay
CDC25B-CDK2 inh: human CDC25B-CDK2/CyclinA binding inhibition | P30305+P24941 | HTRF CDC25B-CDK2/CyclinA binding, anti-His/anti-Flag; stronger effect = higher value | z-score (concentration not given with the values) | actives 0.72% (n = 94,000) | AID 1259370;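 also: score is relative to mean and SD of negative controls; strong numbers were not always called active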
TAR Tat displ: HIV-1 TAR-Tat binding disruption; HIV-1 TAR RNA, Tat peptide displacement FRET; stronger effect = higher value; z-score (no concentration beside the values); actives 0.6% (n = 100,000); AID 1259389;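 also: score is relative to mean and SD of negative controls; some compounds called inactive have numbers as strong as hits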
An asterisk follows results filed as active; / = not tested or not shown.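 The calls were made as follows: active = z-score from 3 up in half or more of its runs; inactive = the rest.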

| SMILES | CDC25B-CDK2 inh | TAR Tat displ |
| --- | --- | --- |
| COc1cccc(-c2nc(C(N)=O)c3[nH]c(=O)n(CC4CCCO4)c3n2)c1OC (stereo not drawn) | / | 0.44 |
| COC(=O)C1=NN(c2c(C)cccc2Cl)C(=O)C1 | -0.63 | / |
| CCc1c(C)nc2nncn2c1NCc1ccccc1 | -0.03 | -0.59 |
| COC(=O)C(NC(=O)Nc1ccccc1)C(C)C (stereo not drawn) | -1.6 | -0.2 |
| CC(C)NC(=O)Nc1ccc(OCc2ncc(C(F)(F)F)cc2Cl)cc1 | -0.19 | / |
| Cc1ccc(-n2ncc3c(=S)nc[nH]c32)cc1 | -2.3 | 0.06 |
| Cc1ccc(C(=O)Nc2nnc3n2CCS3)cc1C | / | 0.7 |
| FC(F)(F)c1ccc(-c2nnc(-c3ccc4nsnc4c3)o2)cc1 | -2.1 | / |
| COc1ccc(-n2c(SCC(=O)NC3CCCCC3)nc3c(c2=O)SCC3)cc1 | -1.5 | -4.8 |
| Cc1cc(C)c(C#N)c(Sc2c([N+](=O)[O-])ncn2C)n1 | -0.67 | / |
| CCCCC(=O)Nc1ccc2nc(SCc3cc(=O)n4c(C)csc4n3)sc2c1 | / | 0.01 |
| O=c1ccnc(SCc2ccc([N+](=O)[O-])cc2)[nH]1 | -2.2 | / |
| Cc1ccc2c(c1C)OC(=O)CC2c1ccccc1 (stereo not drawn) | -0.62 | 1.9 |
| O=C1CC(c2cccs2)CC2=C1C(c1cccc(Cl)c1)n1c(nc3ccccc31)N2 (stereo not drawn) | -0.83 | 0.89 |
| CCOc1ccc2ncc(S(=O)(=O)c3ccc(C)cc3)c(N3CCCC3)c2c1 | 5.2* | 0.15 |
| CN(Cc1ccccc1)C(=O)c1ccc(NC2=NC3CS(=O)(=O)CC3S2)cc1 (stereo not drawn) | / | -0.27 |
| CCCCn1cc(S(=O)(=O)c2ccccc2)c(=O)c2cc(F)c(F)cc21 | -0.04 | -0.02 |
| Cc1ccn2c(=O)c(C(=O)NCCCn3ccnc3)c(O)nc2c1 | -0.09 | -0.45 |
| CCCSc1nc(=O)n(-c2cccc(C)c2)c2c1CCC2 | -1.8 | 1.8 |
| COc1nc(C)c([N+](=O)[O-])c(OC)n1 | -0.81 | / |
| CCOC(=O)Nc1oc2ccccc2c(=O)c1CN1CCOCC1 | -1.9 | 2.4 |
| COc1cc(NS(=O)(=O)c2ccc(-c3coc(C)n3)cc2)cc(OC)c1 | / | 1.5 |
| COc1ccc(Nc2c3c(nc4nncn24)CCC3)cc1Cl | -0.28 | 1.7 |
| Cc1cc(C)cc(-n2ccn3cnnc3c2=O)c1 | -1.6 | -0.01 |
| CC1CCC(NC(=O)c2cc3c(s2)-c2ccc(Cl)cc2S(=O)(=O)C3)CC1 (stereo not drawn) | -2.8 | 2.1 |
| CCCC(O)c1nc2ccccc2n1CCCOc1ccccc1C (stereo not drawn) | -1.2 | 0.13 |
| O=c1c2c(-c3ccc(Cl)cc3)csc2ncn1CCN1CCOCC1 | -2.1 | 0.53 |
| Cc1cc(-c2ccc(C(C)C)c(S(=O)(=O)N3CC(=O)Nc4ccccc43)c2)on1 | / | 2.1 |
| Cc1ccnc(NS(=O)(=O)c2ccc(Br)cc2)c1 | 0.87 | 0.04 |
| NS(=O)(=O)c1ccc(CCNc2c(-c3ccccc3)c(=O)c2=O)cc1 | / | 2.5 |
| Cc1cccc(-c2noc(-c3cccnc3NCc3ccccn3)n2)c1 | -2.6 | 0.54 |
| CCN1CCN(C2=NCCN2S(=O)(=O)c2cccc3nsnc23)CC1 | / | 0.96 |
| CN(C)C(=O)c1ccc2c(c1)N(CC(=O)N1CCN(C3CCCCC3)CC1)C(=O)C1CCCCN21 (stereo not drawn) | / | -0.3 |
| CC1CCCCC1NC(=O)c1cnn2c3c(cnc12)CCCCCC3 (stereo not drawn) | / | 0.76 |
| COCCNc1cc(C)nc2c(-c3ccc(F)cc3)cnn12 | -1.9 | 0.02 |
| c1cncc(CNc2nc3ccccc3n3cnnc23)c1 | -0.59 | 0.14 |
| COc1ccc(OC)c(-c2nc(C(N)=O)c3[nH]c(=O)n(C4CCCCC4)c3n2)c1 | / | 0.25 |
| COc1cc(/C=c2\sc3nc4c(C)cc(C)cc4n3c2=O)cc2sc(=O)oc12 | -2.8 | / |
| Cc1csc2nc(-c3cccc(NS(=O)(=O)c4cccnc4)c3)cn12 | / | 0.02 |
| COc1ccc(-n2c(Cc3cccn3C)nnc2SCC(=O)NC2CCCC2)cc1 | -0.87 | 2.6 |
| Cc1ccc(-c2nc(SCCOc3ccccc3)n3[nH]c(=O)cc3n2)cc1 | / | 0.1 |
| COc1ccc(N2CCN(CCNc3cc(C)nc4nc(-c5ccco5)nn34)CC2)cc1 | / | 1.3 |
| NC(=O)C1CCN(C(=O)c2ccc(N3CCCS3(=O)=O)cc2)CC1 | / | 0.88 |
| Cc1cc(C)c(S(=O)(=O)Nc2cccc3ccc(C)nc23)c(C)c1 | 0.42 | 0.78 |
| CCOC(=O)c1c(C)[nH]c(C)c1S(=O)(=O)N1CCC(C(=O)N2CCOCC2)CC1 | / | 0.82 |
| CCCc1cnc(N2CCCNCC2)nc1 | 0.45 | / |
| CC(=O)C(/C=N/c1ncc(C(F)(F)F)cc1Cl)=C(\C)O | -0.71 | / |
| CCOC(=O)c1cc(NC(=O)Nc2cccc(Cl)c2)ccc1Oc1cncc(Cl)c1 | 0.55 | / |
| CNc1nc(N2CCCC2)c2cnn(C)c2n1 | / | 2.1 |
| CCC(C)(C)C1CCc2c(sc(NC(=O)c3cc(OC)c(OC)c(OC)c3)c2C(N)=O)C1 (stereo not drawn) | -1.1 | / |

(list continues)
| SMILES | CDC25B-CDK2 inh | TAR Tat displ |
| --- | --- | --- |
| CC(=O)OC[C@H](OC(C)=O)[C@H](OC(C)=O)C12COC(=O)C(N1C(C)=O)C(C)(C)S2 (stereo partly drawn) | -0.46 | / |
| CCOc1ccc(-c2noc(-c3nnn(-c4ccc(C)cc4C)c3N)n2)cc1 | / | 0.38 |
| COc1ccc(OC)c(-n2cc3c(c2-c2ccccc2)c(=O)n(-c2ccccc2)n3C)c1 | -1.5 | 0.45 |
| COc1cc2c(cc1OC)C(c1sc3ccccc3c1Cl)=NCC2 | -0.73 | / |
| Cc1ccc(C(=O)c2cn(Cc3ccccc3)c3cc4c(cc3c2=O)OCCO4)cc1 | -1.8 | -1.3 |
| CC(=O)Nc1nn2c(-c3ccco3)nnc2s1 | -1.2 | 1.5 |
| Cc1ccc2c(=O)cc(C(=O)N(Cc3ccccc3Cl)C3CCS(=O)(=O)C3)oc2c1C (stereo not drawn) | -0.35 | -1.2 |
| Cn1nc(C(=O)O)c2c1-c1ccccc1CC2 | 0.68 | 0.74 |
| COc1cc(NC(=O)CCc2nc3sc4c(c3c(=O)[nH]2)CCCC4)cc(OC)c1 | / | -0.82 |
| CCCN(CCC)S(=O)(=O)c1ccc(-c2cc(C(=O)OCC)no2)s1 | / | -0.31 |

Arranged by length of the SMILES (high to low): some entries from above.
| SMILES | CDC25B-CDK2 inh | TAR Tat displ |
| --- | --- | --- |
| COc1ccc(OC)c(-n2cc3c(c2-c2ccccc2)c(=O)n(-c2ccccc2)n3C)c1 | -1.5 | 0.45 |
| Cc1cc(-c2ccc(C(C)C)c(S(=O)(=O)N3CC(=O)Nc4ccccc43)c2)on1 | / | 2.1 |
| COc1ccc(-n2c(SCC(=O)NC3CCCCC3)nc3c(c2=O)SCC3)cc1 | -1.5 | -4.8 |

New compounds follow:
| SMILES | CDC25B-CDK2 inh | TAR Tat displ |
| --- | --- | --- |
| Cn1c(=O)c2c(nc(NCCO)n2CC(O)COc2ccccc2)n(C)c1=O (stereo not drawn) | -1.1 | 0.72 |
| CC1=NN(C(=O)c2ccc(C)o2)C(O)(C(F)(F)F)C1 (stereo not drawn) | 0.39 | / |
| CC(=O)Oc1ccccc1C(=O)OCC(=O)c1ccc(OCc2ccccc2)cc1 | 0.79 | 0.72 |
| O=C(NCCNc1c([N+](=O)[O-])cc(C(F)(F)F)cc1[N+](=O)[O-])c1ccccc1Cl | -0.31 | / |
| O=C(NCCO)C1COc2ccccc2O1 (stereo not drawn) | -0.39 | 2.4 |
| CSc1ncc(Cl)c(C(=O)Nc2sc3c(c2C(=O)NCc2ccco2)CCCC3)n1 | -2.5 | -1.2 |
| COc1ccc(C2/C(=C(/O)c3ccc(C)cc3)C(=O)C(=O)N2CC(C)O)c(OC)c1 (stereo not drawn) | 0.76 | -0.24 |
| c1ccc(-c2nc3sccn3c2Nc2ccc3c(c2)OCCO3)cc1 | 0.41 | / |
| Cn1c(SCc2nc(-c3ccccc3)no2)nnc1-c1ccco1 | 1.1 | 0.08 |
| CCc1nn2c(=O)cc(COC(C)=O)nc2s1 | / | 0.51 |

Full records, looked up by structure. Order of values: CDC25B-CDK2 inh | TAR Tat displ
Listed for `CCOC(=O)c1cc(NC(=O)Nc2cccc(Cl)c2)ccc1Oc1cncc(Cl)c1` → 0.55 | /
Listed for `CCCSc1nc(=O)n(-c2cccc(C)c2)c2c1CCC2` → -1.8 | 1.8
Listed for `Cc1ccc2c(c1C)OC(=O)CC2c1ccccc1` (stereo not drawn) → -0.62 | 1.9
Listed for `Cc1cc(C)cc(-n2ccn3cnnc3c2=O)c1` → -1.6 | -0.01

(more compounds)
| SMILES | CDC25B-CDK2 inh | TAR Tat displ |
| --- | --- | --- |
| Cc1cc(-c2cc(S(=O)(=O)N3CCc4ccccc4C3)c(C)s2)on1 | / | 3.1 |
| CCOC(=O)N1CCC(Nc2c(Nc3ccc(Cl)cc3)c(=O)c2=O)CC1 | -1.5 | 0.59 |
| COC(=O)Cc1cc(=O)oc2cc(O)ccc12 | -2.2 | / |
| CC1(C)C(=O)Nc2ccc(S(=O)(=O)NCc3ccc4c(c3)OCO4)cc21 | / | 1.1 |
| O=C(Oc1ccccc1)c1sc2ccccc2c1Cl | / | 2.5 |
| O=C(CNC(=O)c1ccc(F)cc1)OCc1cc(=O)n2nc(C3CC3)sc2n1 | / | 0.38 |
| Cc1cc(=O)n2nc(N3CCCC(C(=O)NCCCSC4CCCCC4)C3)sc2n1 (stereo not drawn) | -0.32 | 5.1 |
| COCCNC(=O)CSc1ncnc2c1sc1cccc(F)c12 | / | -1.1 |
| c1csc(-c2nnc(-c3ccc4c(c3)OCO4)o2)c1 | -0.8 | 0.58 |
| COc1ccc(C2C(C(=O)OC(C)(C)C)C(=O)CC(C)(O)C2C(=O)OC(C)(C)C)cc1 (stereo not drawn) | 1.5 | 0.31 |
| O=S(=O)(NCCc1csc2nc(-c3ccccc3)nn12)c1ccc(Br)cc1 | / | 1.8 |
| Cc1ccccc1C(=O)N1CCN(c2cc(=O)n3nc(-c4ccccc4C)sc3n2)CC1 | / | -0.03 |
| COc1ccc(CN2C(=O)c3cccnc3C2=O)cc1S(=O)(=O)N1CCOCC1 | / | 0.45 |
| CCN(CC)C(=O)CN1c2ccc(Br)cc2-c2ccccc2S1(=O)=O | -1.2 | -0.24 |
| O=C(CN1N=NC2C(=O)N(c3ccc(F)cc3)C(=O)C21)Nc1ccc2c(c1)OCCO2 (stereo not drawn) | / | 0.37 |
| Fc1ccc(NC(=S)NCc2cccs2)cc1Cl | -0.34 | / |
| COc1cccc(-c2nc3c(c(=O)[nH]2)Cc2cc(Br)ccc2O3)c1O | -1.5 | 1.8 |
| COc1ccc(CCN=C2NS(=O)(=O)C(c3ccc(C(C)C)cc3)=C2C)cc1OC | -4.1 | -0.36 |
| CC(C)CC(NS(=O)(=O)c1ccc2c(c1)oc(=O)n2C)C(=O)NCc1ccccn1 (stereo not drawn) | -2.1 | 0.5 |
| O=c1c2ccccc2nc(SCc2cc(F)cc3c2OCOC3)n1Cc1cccs1 | -1.3 | / |
| COc1cc(C2NC(=O)c3c(F)cccc3N2)c(Br)c(Br)c1O (stereo not drawn) | -0.43 | / |
| Cn1c(=O)[nH]c(=O)c2c1nc(NCCCO)n2CCO | -1.4 | 0.76 |
| CCOC(=O)COc1nc(-c2ccccc2)sc1C(=O)OCC | -0.18 | -0.91 |
| COC(OC)c1ccc2c(N)c(C(=O)Nc3ccccc3)sc2n1 | -0.7 | / |
| COC(=O)CSC1=C(C#N)C(=O)NC(c2ccco2)S1 (stereo not drawn) | -0.46 | 0.76 |
| O=c1cc(CN2C=NS(=O)(=O)c3ccccc32)nc2ccccn12 | / | -1.1 |
| Cc1ccn2c(Nc3ccc4c(c3)OCO4)c(-c3ccccn3)nc2c1 | -0.15 | / |
| CCOC(=O)CSC1=C(C#N)C(c2ccc(Cl)cc2)CC(=O)N1 (stereo not drawn) | -0.56 | -1.4 |
| O=C1CCSc2ccc(S(=O)(=O)Nc3ccc(F)c(F)c3)cc2N1 | / | 1.6 |
| COc1cccc(CNCCSc2nnnn2C)c1OCc1ccc(Cl)cc1 | -1.2 | -0.04 |
| Cc1cc2oc(C(=O)Nc3nc4c(s3)CC(C)CC4)c(C)c2cc1C (stereo not drawn) | -1.5 | 1.3 |
| O=C(c1cnc(N2CCCC2)nc1)N1CCN(C(=O)c2ccco2)CC1 | / | 0.78 |
| O=S(=O)(c1ccc2[nH]c3c(c2c1)CCCC3)N1CCOc2ccc(Cl)cc21 | / | 0.91 |
| Cc1cccc2cc3c(nc12)N(C(=O)c1ccc(Br)cc1)CC3 | -2.2 | -1 |
| CCCN(CCC)S(=O)(=O)c1cc(-c2n[nH]c(=O)c3c2CCCC3)ccc1C | 3.3 | 0.74 |
| C=C(C)Cn1c(C2CC(=O)N(c3ccc(C)c(Cl)c3)C2)nc2ccccc21 (stereo not drawn) | -0.72 | -0.32 |
| O=C(O)CCn1c(SCc2ccccc2)nc2ccccc21 | -0.63 | / |
| COc1ccc(Nc2nc(-c3ccccc3)no2)c(OC)c1 | / | -0.96 |
| Clc1ccc(-c2nnn3c2nc(NCc2ccco2)c2ccccc23)cc1 | 2.2 | 0.08 |
| COc1ccc(Cc2nnc3sc(/C=C/c4ccco4)nn23)cc1 | 2.1 | 8.3* |
| CCOC(=O)N1CCN([C@H]2CS(=O)(=O)C[C@@H]2S(=O)(=O)c2ccc(C)cc2)CC1 | -1.4 | -0.11 |
| Cc1c(C(=O)Nc2ccc3c(c2)OCO3)sc2nc(-c3ccc(F)cc3)cn12 | -1.3 | / |
